Mtb hypoxia rep: reduces hypoxia-regulated biosensor signal in M. tuberculosis. M. tuberculosis hypoxia-regulated fluorescent reporter, fluorescence. fluorescence inhibition, % (concentration not given with the values). actives 0.1% (n = 300,000);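 active means 35 to 45% if threefold the growth effect, above 45% if 1.5-fold the growth effect; inactive means the rest, general growth blockers included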;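 further: wells of about 50 µL received 100 nL stock; 0% = vehicle wells and 100% = reference inhibitor wells; whole bacteria with a GFP reporter of the hypoxia response; strong numbers were not always called active; many hits fall short of the cut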
Autofluor counter: flagged as autofluorescent in microsphere protease counterscreen | compound autofluorescence counterscreen, microsphere flow cytometry; active compounds read high | fluorescence intensity (test concentration not listed) | actives 3.1% (n = 360,000) | AID 624483;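 active means at least 3 SD above the mean of all compounds, about 16000 in these data; inconclusive means too few beads counted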;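 further: 100 nL of 1 mM stock went into each well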
BJeLR lethal: BJeLR cell viability loss; BJeLR (HRASV12) viability, CellTiter-Glo ATP luminescence, 48 h; reference of the scale not given here; inhibition, % (no concentration beside the values); actives 0.17% (n = 300,000); AID 1554;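 active means replicate mean above 50%; inconclusive means above 50% but judged a plate artefact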;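 further: 50 nL library stock added to about 25 µL; numbers are from one replicate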
RN4220 kill: kills Staphylococcus aureus RN4220; inhibition, % (no concentration beside the values); S. aureus RN4220 growth, OD600, 16 h; actives 0.33% (n = 330,000);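 active means z-score of -3 or lower and OD600 up to 0.18 on both plates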;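 further: plate controls were untreated cells for no effect and reference antibiotic for full effect; stock transfer was 100 nL into about 80 µL; one replicate is shown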
Sa ugtP lethal: kills S. aureus RN4220 lacking UgtP; actives 0.54% (n = 330,000); growth inhibition, % (concentration not given with the values); AID 1259309; S. aureus RN4220 ugtP deletion, OD600 growth, 16 h; some inactives read as strong as hits;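 active means z-score under -3 and OD600 up to 0.15 on both plates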;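 further: plate controls were untreated wells for no effect and antibiotic for full effect; wells of about 80 µL received 100 nL stock; the first replicate is given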
PrP UTR inh: inhibition of PrP 5' UTR reporter expression; cell-based PrP 5' UTR mRNA reporter, plate reader; inhibition, % (concentration not given with the values); actives 0.35% (n = 340,000);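 active means every replicate at 50% or more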;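 further: 0 = median of the neutral control wells; tested in H4 reporter cells; numbers are from one replicate; inactives centre near -14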
Mtb hypoxia rep growth: also measured in Mtb hypoxia rep; calls as there; growth inhibition, %; measured here: M. tuberculosis growth (absorbance);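 0% = vehicle and 100% = reference antibiotic; read after six days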
Numbers without * were called inactive; u = inconclusive; x = not tested or not shown.

Values run as follows: Mtb hypoxia rep, Mtb hypoxia rep growth, Autofluor counter, BJeLR lethal, RN4220 kill, Sa ugtP lethal, PrP UTR inh
> COc1ccc2[nH]c(=O)c(CN(Cc3cccnc3)S(=O)(=O)c3ccccc3F)cc2c1
  -10, -3, 6482, 13, 5.7, 1, -21
> COc1cccc(CNC(=O)C23CN(Cc4ccccc4)CC2C(c2ccc([N+](=O)[O-])cc2)=NO3)c1 (stereo not given)
  -4, -3, 4039, 2, 16, 12, -22
> O=c1cc(/C=C/c2cccs2)[nH]c2ccccc12
  16, 15, 9977, 13, -2.5, -14, x
> O=C1CC(c2ccco2)Cc2nc(NCC3CCCO3)ncc21 (stereo not given)
  x, x, 2960, -1, 3.4, -2, -11
> CCC1=NC(c2ccc(OC)c(OC)c2)N(O)C1(C)C (stereo not given)
  4, -4, 2231, 7, 0.2, 5, -29
> O=C(c1c(F)cccc1F)N1CCC(n2nnc3cc(C(F)(F)F)ccc32)CC1
  8, 13, 4264, -3, 1.9, 5, -11
> Cc1c(C(=O)O)sc2nc(CSc3nnc(-c4ccc(F)cc4)n3C)[nH]c(=O)c12
  10, 3, 4437, -4, -1.1, -2, -19
> CN(CC(=O)c1c(N)n(C)c(=O)n(C)c1=O)c1ccccc1
  16, 5, 4052, 0, 4.2, 2, -11
> CC(C)N(CCNC(=O)c1ccc(CS(=O)(=O)c2c(Cl)cccc2Cl)o1)Cc1ccccc1
  7, -3, 5316, 3, 1.1, 6, -22
> COc1ccc(C2c3[nH]c4ccccc4c3C[C@H]3C(=O)N(C4CCN(Cc5ccccc5)CC4)CC(=O)N23)c(OC)c1 (stereo not given in full)
  9, 14, 4398, 21, -2.5, 1, -4
> COC(=O)C1=C(c2ccc3ccccc3c2)CC2CCC1N2C(=O)NC(C)C (stereo not given)
  8, 10, x, x, 2.5, 3, x
> COc1ccccc1S(=O)(=O)N1CCn2cccc2C1C (stereo not given)
  5, -1, x, x, 6.3, 18, -42
> Cc1ccc(NC(=O)CSc2ccc(S(=O)(=O)N3CCCC3)cn2)cc1F
  4, 3, 7937, x, 5.4, 1, -4
> Clc1cccc(CNCCc2ccc3c(c2)OCO3)c1
  0, 7, 3716, 6, 1.6, 4, -7
> Cc1nn(C)cc1C1C(C#N)=C(N)N(c2cccnc2)C2=C1C(=O)CCC2 (stereo not given)
  0, 7, 2879, 6, 3.7, 6, -9
> CCN(Cc1ccccc1)c1ccc(/C=N/N=C(N)N)cc1
  x, x, 2020, 15, x, x, -12
> CCn1c(SCC(=O)c2ccc3c(c2)OCCO3)nnc1C(C)C
  6, 9, 4701, x, -0.5, 0, -21
> COc1ccc2c(c1)CCc1c(C(=O)NCCN3CCOCC3)noc1-2
  5, 8, 10269, 17, 1.1, 7, -19
> CCN1CCN(CC(=O)Nc2ccc(OC(F)(F)F)cc2)CC1
  1, 1, 4369, 2, 3.6, 13, -22
> CC1CCCC(NC(=O)COC(=O)COc2ccccc2Cl)C1C (stereo not given)
  4, 2, 4616, 2, 4.4, 9, -26
> COc1ccc(S(=O)(=O)Nc2cc3c(C(C)=O)c(C)oc3c3ccccc23)cc1
  5, 9, 4249, 34, 9.3, -8, -38
> Cc1noc(C)c1NC(=O)N(C)C[C@@H]1Oc2ccc(NC(=O)C3CCCCC3)cc2C(=O)N([C@@H](C)CO)C[C@H]1C
  8, 8, 4111, x, -16, -3, -23
> CC(C)c1nnc(NC(=O)C2CCCO2)s1 (stereo not given)
  5, -10, 4152, 1, -1.3, 2, -24
> Cc1cc(C)nc(N2CCCC(C(=O)NCc3ccccc3)C2)n1 (stereo not given)
  6, 4, 8973, -8, 3.5, -1, -8
> COc1ccc(C(=S)NCS(=O)(=O)c2ccc(C)cc2)cc1
  12, 12, 2088, 8, 6.4, 56, -1
> CCCNC(=S)NCc1ccc(Cl)cc1
  6, 14, 10125, 3, 6.0, 8, -13
> CCOC(=O)C(=NNc1ccccc1Cl)N1CCN(c2ccccc2OC)CC1
  2, 11, x, x, 2.4, -2, x
> O=C(O)CC1OCC=C2CN3CCC45c6ccccc6NC4C1C2CC35 (stereo not given)
  x, x, 3061, -6, x, x, -14
> O=C(CCc1nc2sc3c(c2c(=O)[nH]1)CCCC3)NCCc1ccc(F)cc1
  0, 8, 5198, -8, 0.5, -1, -11
> COc1cc2nc(SCc3ccc(F)cc3)n(Cc3cccs3)c(=N)c2cc1OC
  2, 1, 20501*, 4, 24, -3, -43

Pulled by structure from the entries so far, three records:
Values run as follows: Mtb hypoxia rep, Mtb hypoxia rep growth, Autofluor counter, BJeLR lethal, RN4220 kill, Sa ugtP lethal, PrP UTR inh
> COc1cc2nc(SCc3ccc(F)cc3)n(Cc3cccs3)c(=N)c2cc1OC
  2, 1, 20501*, 4, 24, -3, -43
> CC(C)N(CCNC(=O)c1ccc(CS(=O)(=O)c2c(Cl)cccc2Cl)o1)Cc1ccccc1
  7, -3, 5316, 3, 1.1, 6, -22
> COc1cccc(CNC(=O)C23CN(Cc4ccccc4)CC2C(c2ccc([N+](=O)[O-])cc2)=NO3)c1 (stereo not given)
  -4, -3, 4039, 2, 16, 12, -22

Carrying on:
Values run as follows: Mtb hypoxia rep, Mtb hypoxia rep growth, Autofluor counter, BJeLR lethal, RN4220 kill, Sa ugtP lethal, PrP UTR inh
> C/C(=N\N=C\c1ccccc1)c1nnn(-c2nonc2N)c1C
  x, x, 3344, 0, x, x, -31
> O=C(Nc1ccccn1)c1ccc2ccccc2c1O
  10, 13, 3050, -3, 21, 13, -48
> COC(=O)c1sc(OC)cc1OCc1ccc(C)cc1
  6, 0, 3129, 4, 8.1, -2, -10
> CCc1ccc(N(CC(=O)Nc2ccccc2C(=O)N2CCOCC2)S(C)(=O)=O)cc1
  -7, 2, 1966, -4, -1.9, 3, -20
> COc1cccc(OCc2nc3c4cnn(-c5ccccc5)c4ncn3n2)c1
  3, 2, 11736, 5, -0.3, 6, x
> CC(=O)c1ccc(NC(=O)c2cccs2)cc1
  6, 7, 8908, 11, 8.0, -9, -87
> COc1ccc(OC)c2[nH]c(=O)c(CCNS(=O)(=O)c3ccccc3)cc12
  x, x, 2188, 1, 1.1, 1, -5
> CCN1CCN(C(=O)c2cc3cc(Cl)ccc3[nH]2)CC1
  9, 3, 3433, 2, 2.8, 9, -17
> Cc1cc(N)c(NC2=CC(=O)CC(C)(C)C2)cc1C
  9, 7, 3707, 8, 2.4, -7, -2
> O=C(NCC1CCCO1)c1ccc(COCC(F)(F)C(F)F)cc1 (stereo not given)
  -3, 10, 13114, 2, 0.5, 0, -14
> COc1ccc(S(=O)(=O)N2CCOCC2)cc1NC(=O)c1cc(C)oc1C
  6, -2, 8673, x, 3.1, -2, -4
> Cc1ccc(N(C)C(=O)c2ccc(CNc3c(N4CCC(C)CC4)c(=O)c3=O)cc2)cc1
  4, 3, 5830, -11, 3.7, 16, -19
> COc1ccc(CNC(=O)COC(=O)c2ccc(Br)c(S(=O)(=O)N3CCOCC3)c2)cc1
  11, 4, u, x, 11, -8, -30
> CN(C)c1cccc(C(=O)NN2C(=O)NC3(CCCCC3)C2=O)c1
  3, 2, 4367, x, 4.1, 6, -27
> O=C(CCN1C(=O)/C(=C\c2ccc(F)cc2)SC1=S)Nc1ccccc1
  -8, -3, 3739, 3, 2.4, 1, -5
> COc1ccc(N2CCN(C(CNS(=O)(=O)c3ccc(C)cc3)c3ccccc3)CC2)cc1 (stereo not given)
  4, 21, 4566, x, -2.7, -2, -9
> CC1(C)CC2(CCO1)NCCN1C(=O)CSC12 (stereo not given)
  x, x, 3687, -6, 1.2, 8, -5
> CCN(C(=O)COC(=O)CNS(=O)(=O)c1ccc2ccccc2c1)C1CCCCC1
  5, 4, u, 0, 5.5, 12, -23
> O=S(=O)(c1ccc(Br)cc1)N1CCCC1c1nc2ccccc2s1 (stereo not given)
  5, -1, 4094, 1, -2.2, -9, -6
> COc1ccc(-c2nc(N)n(C(=O)c3cccs3)n2)cc1
  -10, 9, 5994, 1, -8.0, 8, -3
> COc1ccc(-n2c(SC)nnc2-c2c[nH]c3ccccc23)cc1
  -3, -4, 4326, -3, 0.4, -7, 5
> CN(CC(=O)Nc1ccc(F)cc1)C(=O)CCc1ccccc1
  4, 2, 4381, -5, 1.0, 11, -7
> CN(C)N(C)C(=O)C(O)(c1ccccc1)c1ccccc1
  14, -3, 4465, 1, 2.1, 2, -8
> Fc1ccc(CSc2nnc(-c3ccncc3)o2)cc1
  18, 16, 4958, 2, 7.1, 2, 8
> Cc1ccc(S(=O)(=O)N2CCN(C(=O)c3sccc3C)CC2)cc1
  -1, -3, u, -16, 0.6, 6, -14
> S=c1[nH]nc(-c2ccc3ccccc3n2)n1-c1ccc2ncccc2c1
  -3, -4, 2642, -13, 3.3, -1, -22
> CN1CCCN(S(=O)(=O)c2ccc(Cl)c(Cl)c2)CC1
  10, 9, 3146, 8, 6.6, 2, -6
> CCOC(=O)C1(CC2CC2)CCN(S(=O)(=O)C[C@]23CC[C@H](CC2=O)C3(C)C)CC1
  9, 9, 4250, 6, 0.1, 0, -13
> CCN(CCCNC(=O)CN1C(=O)COc2ccc(S(=O)(=O)N3CCC(C)CC3)cc21)Cc1ccccc1
  -8, -6, 4424, -1, -7.4, -4, -6
> COC(=O)C1CN(C(=O)COc2ccccc2)c2ccccc2O1 (stereo not given)
  -3, 1, 3555, -1, 3.6, 4, -27
> NS(=O)(=O)c1ccc(NC(=S)N2CCN(Cc3ccc4c(c3)OCO4)CC2)cc1
  -2, 9, 3558, 7, -1.6, -10, 9
> CC(=O)c1c(C)[nH]c(C(=O)OCc2cccc(Cl)c2)c1C
  -1, 4, 4966, -2, -14, 8, -19
> Cc1cc(O)c(N)c(C)c1Cl
  7, 12, 5039, -1, 2.1, -5, -28
> Cc1ccc(CN2CCC(NC(=O)c3ccccc3)CC2)cc1
  3, 6, 3446, 3, -0.6, 15, -19
> O=C(Nc1sc2c(c1C(=O)NCc1ccco1)CCCC2)c1ccc2c(c1)OCO2
  3, 3, 21722*, -7, 5.1, -14, -52
> COc1c(O)cccc1[C@@H](O)C1CCN(CCc2ccc(F)cc2)CC1
  x, x, 3869, -5, x, x, -9
> COc1ccc(CC(=O)NN=Cc2cc(Br)c(O)c(Br)c2)cc1
  2, 2, x, x, 15, 4, x
> COC(=O)c1ccc(Cn2cc([N+](=O)[O-])cn2)cc1
  2, 2, 3581, -4, 2.7, 2, -11
> CC1(C)CC(=O)CC(=NNC(=O)CCc2ccc(S(=O)(=O)N3CCOCC3)cc2)C1
  -8, 8, x, x, 0.3, 1, x
> COc1ccc(N2CCN(Cc3nc4c(c(=O)n(C)c(=O)n4C)n3CCc3ccccc3)CC2)cc1
  5, 8, 4986, -7, -12, -1, -14
> CC1CCCN(CCCNC(=O)C2CCC(CNS(=O)(=O)c3cccc4nsnc34)CC2)C1 (stereo not given)
  -1, 8, 5254, 2, -1.8, -2, -2
> CC(=O)N1Cc2ccccc2CC1C(=O)NCc1ccccc1F (stereo not given)
  13, 6, 4272, 2, 0.6, 0, -38
> C=CCn1c(=O)c2ccccc2n2c(=S)[nH]nc12
  0, 11, 3695, -13, 4.3, 17, -4
> CCN(CC)c1ccc(/C=N/NC(=O)c2cc(C)nc3ccccc23)cc1
  x, x, 3060, 3, x, x, -19
> O=C(Nc1ccccc1O)c1cccc(S(=O)(=O)Nc2ccccc2O)c1
  17, -5, 6544, 2, 1.3, 16, -16
> O=C(O)c1c2c(nc3ccccc13)-c1ccccc1CC2
  -9, -1, 4923, 7, 7.1, -2, -11
> COc1ccc(Cl)cc1NS(=O)(=O)c1cn(C)nc1C
  -2, 6, 5715, -9, -0.1, -2, -14
> O=C(O)C1C2C=CC(C2)C1C(=O)Nc1ccccc1Br (stereo not given)
  0, 3, 3430, 18, -3.7, 0, -9
> COc1ccc(N=C2SC(CC(=O)Nc3ccccc3)C(=O)N2Cc2ccco2)cc1 (stereo not given)
  4, 1, 7205, 1, -0.4, 4, 2
> COC(=O)[C@@H]1C[C@@]2(O)[C@H](O)[C@H](O)[C@H](O)C[C@H]2N1Cc1ccc(C)s1
  x, x, 3657, -12, x, x, -23
> O=C(Nc1ccccc1)C1CCCN1S(=O)(=O)c1ccc(Br)cc1 (stereo not given)
  1, -4, 4053, 9, 0.2, 4, 2
> Cc1ccc(CNCCC2=CCCCC2)cc1
  6, 18, 16821*, -4, -0.2, -8, 11
> COc1ccc(C)cc1N1CC(C(=O)OCc2nc(N)nc(Nc3ccccc3C)n2)CC1=O (stereo not given)
  -2, 2, 5778, x, 0.9, 2, -10
> COCCCNS(=O)(=O)c1ccc(SC)cc1
  14, 8, 2414, 1, 9.3, 13, -31

An unsorted share of the library; overall some 4% were active at least once.
